VDR inhibitor – inhibitors of human vitamin D receptor; 400,000 tested, 0.93% active; VDR-SRC2-3 peptide fluorescence polarization, 2 h; Potency, µM, for inactives: max response, negative = inhibition, usual class: inhibitors; AID 504847; active = well fitted inhibition curve with a large enough effect; inconclusive = small, poorly fitted or top-dose-only effect, or another doubt; inactive = no such curve, though single readings can be large or run the other way; note: series mostly up to about 120 µM
Target sequence (P11473 whole entry, looked up): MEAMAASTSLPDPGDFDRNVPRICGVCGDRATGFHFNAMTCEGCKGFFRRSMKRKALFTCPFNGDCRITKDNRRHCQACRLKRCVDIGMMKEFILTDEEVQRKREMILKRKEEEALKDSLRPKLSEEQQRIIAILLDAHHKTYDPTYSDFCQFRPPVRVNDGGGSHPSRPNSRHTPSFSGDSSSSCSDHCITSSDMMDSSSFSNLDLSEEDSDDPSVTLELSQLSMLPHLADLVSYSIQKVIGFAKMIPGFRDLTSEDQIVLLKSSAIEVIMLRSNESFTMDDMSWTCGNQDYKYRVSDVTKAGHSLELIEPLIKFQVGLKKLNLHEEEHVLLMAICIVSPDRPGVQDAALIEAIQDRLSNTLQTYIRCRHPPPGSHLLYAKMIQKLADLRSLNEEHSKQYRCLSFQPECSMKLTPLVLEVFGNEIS
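FP read-out; VDR + SRC2-3 coactivator peptide; 23 nl compound by pintool; 2 h RT incubation; reagents held at 4 deg C, protected from light.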
An asterisk follows results filed as active; & = joins results of further samples. % is set by controls: 0 for no effect and ±100 for the full control effect; potency is the fitted concentration of half-maximal effect.

For C=CCNC(=S)NN(c1ccccc1)c1ccccc1 the results were VDR inhibitor -18.3%.
For Cc1ccc(S(=O)(=O)NC(C)C(c2cccs2)N2CCN(C)CC2)cc1 (stereo not given) the results were VDR inhibitor -0.4%.
For CC(=O)c1c(-c2ccc(Cl)cc2Cl)noc1C the results were VDR inhibitor -8.8%.
COCc1c(C(=O)OC)nnn1-c1ccc(C(F)(F)F)cc1[N+](=O)[O-] was read as VDR inhibitor -0.6%.
Screening Cc1nc(SCC(=O)Nc2cccc(S(=O)(=O)N3CCOCC3)c2)nc(C)c1C returned VDR inhibitor -12.7%.
For O=C(Nc1cccc(Oc2ccc3c(c2)C(=O)NC3=O)c1)c1ccco1 the results were VDR inhibitor -11.6%.
O=C(CSc1nnc2ccccn12)c1ccc(Cl)cc1 was read as VDR inhibitor 7.9%.
`Cc1nc(C)c(-c2ccnc(/N=C/NO)n2)s1` gave VDR inhibitor 19.4%.
`Cc1ccc(S(=O)(=O)N2CCN(Cc3cccc(C)c3O)CC2)cc1` gave VDR inhibitor 1.4%.
CC(C)Cn1c(=O)c2ccccc2n2c(CCC(=O)Nc3cccc(Cl)c3)nnc12 was read as VDR inhibitor -14.4%.
Screening Cc1cc(=O)[nH]c(SCC(=O)N2CCCC2)n1 returned VDR inhibitor -10.7%.
For CC1CCN(C(=O)Cn2cc(SCc3ccccc3)c3ccccc32)CC1 the results were VDR inhibitor -6.1%.
Screening CCCCN1CC[C@@H]2C=CC[C@H](C(=O)OC)[C@@H]2C1=O returned VDR inhibitor 7.1%&2.8%.
CCc1ccccc1NC(=S)NC1CC2CCCC(C1)N2Cc1cccs1 (stereo not given) was read as VDR inhibitor 1.9%.
For CC(C)OC(=O)NC(c1ccccc1)C(Cl)(Cl)Cl (stereo not given) the results were VDR inhibitor 6.9%.
Screening Cc1ccc(NC2=CC(=O)OC(C)C2)cc1 (stereo not given) returned VDR inhibitor 3.8%.
For COCCn1c(C)cc(/C=C(\C#N)C(=O)OC(C)C(=O)Nc2ccc(NC(C)=O)cc2)c1C (stereo not given) the results were VDR inhibitor 21.3%.
`CCCCc1nc2cc(C(=O)NC(C)c3cnn(C)c3)ccc2o1` (stereo not given) gave VDR inhibitor 2.1%.
Screening CC(=O)NC(c1cccc([N+](=O)[O-])c1)c1ccc2cccnc2c1O (stereo not given) returned VDR inhibitor -13.7%.
Screening O=C1N(CCCl)c2ccc(Br)cc2C12OCCO2 returned VDR inhibitor inconclusive.
Screening CC1CCN(C(=O)Cn2cc(SCC(=O)Nc3ccccc3)c3ccccc32)CC1 returned VDR inhibitor -3.3%.
Screening COc1ccccc1N1CCN(C(=O)CSc2ncnc3scc(-c4ccccc4)c23)CC1 returned VDR inhibitor inconclusive.
Cc1ccc(NC(=O)CS(=O)CC(=O)NCCCN(C)c2ccccc2)cc1 (stereo not given) was read as VDR inhibitor 7.0%.
O=C(OCc1nnc(-c2ccc([N+](=O)[O-])cc2)o1)C1CCN(C(=O)c2ccc(Cl)cc2)CC1 was read as VDR inhibitor -20.9%.
Screening COc1ccccc1NC(=O)C1=C(C)Nc2c(C(=O)Nc3ccc(C)cc3)cnn2C1c1cccc(OC)c1OC (stereo not given) returned VDR inhibitor -2.0%.
Screening O=C(Cc1cccs1)N1CCN(S(=O)(=O)c2ccc(F)cc2)CC1 returned VDR inhibitor 3.6%.
`CCN(CC)C(=O)Cn1cc(SCC(=O)Nc2cc(C)on2)c2ccccc21` gave VDR inhibitor 4.7%.
`O=C(Nc1ccc2nc(SCC(=O)N3CCc4ccccc43)sc2c1)c1ccc(Cl)cc1` gave VDR inhibitor 11.0%.
O=C(CSc1nc(=O)n2ccccc2n1)N1CCN(c2ccccc2)CC1 was read as VDR inhibitor 9.9%.
CC(=O)c1cccc(N=C2NC(=O)C(CO)(CO)S2)c1 was read as VDR inhibitor 6.1%.

Arranged by count of non-hydrogen atoms (falling): some entries from above.
Screening COc1ccccc1NC(=O)C1=C(C)Nc2c(C(=O)Nc3ccc(C)cc3)cnn2C1c1cccc(OC)c1OC (stereo not given) returned VDR inhibitor -2.0%.
O=C(OCc1nnc(-c2ccc([N+](=O)[O-])cc2)o1)C1CCN(C(=O)c2ccc(Cl)cc2)CC1 was read as VDR inhibitor -20.9%.
Screening CC1CCN(C(=O)Cn2cc(SCC(=O)Nc3ccccc3)c3ccccc32)CC1 returned VDR inhibitor -3.3%.
`CCCCc1nc2cc(C(=O)NC(C)c3cnn(C)c3)ccc2o1` (stereo not given) gave VDR inhibitor 2.1%.
CC(=O)c1cccc(N=C2NC(=O)C(CO)(CO)S2)c1 was read as VDR inhibitor 6.1%.
Screening O=C1N(CCCl)c2ccc(Br)cc2C12OCCO2 returned VDR inhibitor inconclusive.
Screening Cc1ccc(NC2=CC(=O)OC(C)C2)cc1 (stereo not given) returned VDR inhibitor 3.8%.

Next section
`CCC(C)C1NC(=S)N(C2CCCCC2)C1=O` (stereo not given) gave VDR inhibitor 10.6%.
Screening O=C(Cn1cnc2c(NCc3ccccc3)ncnc21)NCCN1CCOCC1 returned VDR inhibitor 3.3%.
For CCN(CC(=O)Nc1c(F)cccc1F)C(=O)CCNC(=O)c1ccccc1OC the results were VDR inhibitor -0.1%.
COc1ccccc1CNC(=O)Cn1ncc2c(=O)oc3ccc(C)cc3c21 was read as VDR inhibitor -15.2%.
`COc1ccc2cnn(CCOc3cc(C)ccc3C(C)C)c(=O)c2c1OC` gave VDR inhibitor -4.7%.
Cc1ccc(NC(=O)CCCN2C(=S)NC(C)(C)CC2C)cc1 (stereo not given) was read as VDR inhibitor -13.0%.
`O=S(=O)(c1cccc(Cl)c1)N1CCN(c2nc(-c3ccccc3)nc3ccccc23)CC1` gave VDR inhibitor 5.3%.
Screening CCOc1ccc(N(CC(=O)Nc2ccccc2C(=O)N2CCCC2)S(C)(=O)=O)cc1 returned VDR inhibitor -18.7%.
O=C(CSc1nnc(SCc2ccc(Cl)cc2)s1)N/N=C/c1c(Cl)cccc1Cl was read as VDR inhibitor -5.9%.
For Cc1ccc(NC(=O)C2CCCN(S(=O)(=O)c3ccc4c(c3)oc(=O)n4C)C2)nc1 (stereo not given) the results were VDR inhibitor -1.6%.
CCOC(=O)Cn1cc(Cl)cc(C(=O)Nc2ccccc2)c1=O was read as VDR inhibitor 3.2%.
N#Cc1ccccc1S(=O)(=O)N1CCN(C(=O)c2cn(-c3ccccc3)nc2-c2cccnc2)CC1 was read as VDR inhibitor 21.4%.
`CCCOc1ccc(C2C(C(=O)c3cc4ccccc4o3)=C(O)C(=O)N2c2cc(C)on2)cc1OC` (stereo not given) gave VDR inhibitor -27.0%.
`CCOC(=O)C1=C(C)NC(C)=C(C(=O)OCC)C1C(=O)OCC(=O)NCCc1ccccc1` gave VDR inhibitor -1.3%.
For COc1ccc2c(Cl)c(C(=O)NN3CCN(C)CC3)sc2c1 the results were VDR inhibitor 4.0%.
`CCOC(=O)c1ccc(N(C(=O)c2ccco2)C(C(=O)NC2CCCC2)c2ccncc2)cc1` (stereo not given) gave VDR inhibitor inconclusive.
Screening Cc1cccn2c(=O)nc(SCC(=O)Nc3cccc4ccccc34)nc12 returned VDR inhibitor 4.8%.
COc1ccc(/C=C(\C#N)C(=O)OCC(=O)Nc2ccc(-c3nc4ccc(C)cc4s3)cc2)cc1 was read as VDR inhibitor 18.6%.
For C#CCOC(=O)/C(=C/c1ccc(F)cc1)NC(C)=O the results were VDR inhibitor -12.3%.
COc1ccc(N2CCN(C(=O)c3oc4ccccc4c3NC(=O)Cc3cccc(OC)c3)CC2)cc1 was read as VDR inhibitor -20.8%.
CCCCC/C=C/C1=CC(=O)C[C@H](c2ccc3c(c2)OCO3)C1 was read as VDR inhibitor -9.4%.
Screening Nc1nnnn1/N=C/c1cc(Cl)ccc1O returned VDR inhibitor -0.2%.
`O=C(NCCCCc1ccccc1)C12CN(Cc3ccccc3)CC1C(c1cccc([N+](=O)[O-])c1)=NO2` (stereo not given) gave VDR inhibitor -27.3%.
COc1cc(OC)cc(C(=O)NC(=S)Nc2cccnc2)c1 was read as VDR inhibitor -1.1%.
Screening COC(=O)C1=CN(Cc2ccccc2)C=C(C(=O)OC)C1c1cc(F)ccc1F returned VDR inhibitor -21.2%.
For O=S(=O)(Nc1cc(Sc2cccc3cccnc23)c(O)c2ccccc12)c1ccc(F)cc1 the results were VDR inhibitor 22.4µM*.
Screening O=C(COc1ccc([N+](=O)[O-])cc1)N(Cc1cccs1)C1CCS(=O)(=O)C1 (stereo not given) returned VDR inhibitor -19.0%.
`COc1ccc(S(=O)(=O)N2CCCC(C(=O)N3CCN(C)CC3)C2)cc1Cl` (stereo not given) gave VDR inhibitor -2.2%.
`O=C(Cc1ccccc1)N/N=C/c1cc(Br)cc(Cl)c1O` gave VDR inhibitor 11.7%.
Screening CCOC(=O)c1cc(C#N)c(SCC(=O)c2cc(C#N)c(SC)nc2C)nc1C returned VDR inhibitor -11.0%.
Screening Cn1cccc1C(=O)NCC(c1ccc(F)cc1)N1CCOCC1 (stereo not given) returned VDR inhibitor -9.8%.
Screening Cc1ccsc1/C=C1\SC(N2CCOCC2)=NC1=O returned VDR inhibitor 2.4%.
C=CCN(CC=C)CCOc1ccccc1 was read as VDR inhibitor 3.4%.
CCOC(=O)C1CCCN(S(=O)(=O)CCNC(=O)c2cccc(OC)c2)C1 (stereo not given) was read as VDR inhibitor inconclusive.
C[C@H](NC(=O)Cc1cccc2ccccc12)C(=O)N1CCCN(C)CC1 was read as VDR inhibitor -16.0%.
For CC(C)SCCCOc1ccc(C(C)(C)C)cc1 the results were VDR inhibitor 14.3%.
O=C(COC(=O)c1ccc(S(=O)(=O)N2CCCC2)cc1)NCc1ccccc1 was read as VDR inhibitor 0.4%.
CCc1ccc(NC(=O)CSC2=Nc3ccccc3C3=NC(CCC(=O)NCc4ccco4)C(=O)N23)cc1 (stereo not given) was read as VDR inhibitor -1.8%.
CCS(=O)(=O)CCSc1nc(C)cc(C)c1C#N was read as VDR inhibitor 4.1%.
For CCNC(=O)Oc1ccc(-c2csnn2)cc1 the results were VDR inhibitor -12.5%.
`Cc1cc(CSc2ccccc2C(=O)O)on1` gave VDR inhibitor -1.0%.
`NC(=O)COC(=O)[C@H](Cc1ccccc1)NS(=O)(=O)c1ccc2c(c1)OCCO2` gave VDR inhibitor 3.2%.
CCCCCCCCCCCC(CC1OC(=O)C1CCCCCC)OC(=O)C(CC(C)C)NC=O (stereo not given) was read as VDR inhibitor 8.5%.
For O=C(Nc1cccc2ncccc12)c1ccccc1[N+](=O)[O-] the results were VDR inhibitor -16.0%.
`COc1ccccc1CCC(=O)N1CCN(S(=O)(=O)c2cccc(F)c2)CC1` gave VDR inhibitor -9.0%.
Screening CCc1ccc(CNCc2c(C(=O)O)c(C)n(Cc3c(F)cccc3Cl)c2C)cc1 returned VDR inhibitor 15.0%.
Clc1cccc(Cl)c1/C=C/c1nc2ccccc2[nH]1 was read as VDR inhibitor 0.6%.
`COc1ccc(-c2cn(Cc3ccc(C)cc3)nn2)cc1` gave VDR inhibitor -21.7%.
For CCCCCCn1c(SCC(=O)c2c(N)n(C)c(=O)n(C)c2=O)nc2ccccc21 the results were VDR inhibitor -9.9%.
O=C(NNC(=O)c1nn(-c2ccc(F)cc2)ccc1=O)c1ccc(Cl)cc1 was read as VDR inhibitor -15.0%.
For O=C(O)c1cccc(NS(=O)(=O)c2ccc(S(=O)(=O)N3CCOCC3)cc2)c1 the results were VDR inhibitor -9.8%.
For Cc1ccc2oc(-c3ccc(C)c(NC(=O)/C=C/c4ccco4)c3)nc2c1 the results were VDR inhibitor -18.2%.
Screening O=C(NCCc1ccccc1Cl)c1cc2ccccn2n1 returned VDR inhibitor -4.9%.
`CC(C)C(NC(=O)c1c(F)cccc1F)C(=O)NCC(c1ccccc1)N(C)C` (stereo not given) gave VDR inhibitor -6.7%.
For O=C1CCCC(O)=C1C1C2=C(CCCC2=O)Oc2ccccc21 (stereo not given) the results were VDR inhibitor 6.1%.
For c1ccc(NCc2nnc3n2CCCCC3)cc1 the results were VDR inhibitor -4.5%.
Cc1ccc2c(CC(=O)Nc3ccc(F)c(S(=O)(=O)N4CCOCC4)c3)coc2c1 was read as VDR inhibitor -4.1%.
For Cc1onc(-c2c(Cl)cccc2Cl)c1C(=O)Nc1ccc2c(c1)OCO2 the results were VDR inhibitor 9.7%.
Screening O=C(Nc1nnc(-c2ccc3c(c2)OCCO3)o1)c1ccc(Cc2ccccc2)cc1 returned VDR inhibitor -0.4%.
`CC1(C(=O)Oc2ccccc2)Cc2ccccc2C(=O)O1` (stereo not given) gave VDR inhibitor 2.8%.

Reprinted from the part before: 2 entries, followed by the next part.
Screening O=C(Nc1nnc(-c2ccc3c(c2)OCCO3)o1)c1ccc(Cc2ccccc2)cc1 returned VDR inhibitor -0.4%.
`CC1(C(=O)Oc2ccccc2)Cc2ccccc2C(=O)O1` (stereo not given) gave VDR inhibitor 2.8%.
CCOC(=O)[C@H](CCc1ccccc1)N[C@@H](C)C(=O)N1CCC[C@H]1C(=O)O was read as VDR inhibitor 6.4%&-15.4%&2.8%&-4.7%.
O=C(CSc1nc2ccccc2nc1N1CCOCC1)N1CCN(c2ccccc2)CC1 was read as VDR inhibitor -12.1%.
`CC1(C)OC2C(CO)OC(n3cnc4c(=O)[nH]cnc43)C2O1` (stereo not given) gave VDR inhibitor 0.2%.
CCCCN(C1CCS(=O)(=O)C1)S(=O)(=O)c1cc(C)ccc1C (stereo not given) was read as VDR inhibitor 1.3%.
Screening CC(C)c1nnc(NC(=O)C2CCN(c3nc4ccccc4s3)CC2)s1 returned VDR inhibitor -6.9%.
`CSc1ccc(C(=O)Nc2ccc(-c3nc4ccccc4s3)c(O)c2)cc1` gave VDR inhibitor 9.9%.
`Cc1cc(=O)n(CC(=O)Nc2cc(Cl)ccc2C)c(C(C)C)n1` gave VDR inhibitor -17.3%.
For CC(=O)N1CCN(C2=NC(=O)C(=C3CCCCC3)S2)CC1 the results were VDR inhibitor -9.3%.
Screening CC(=O)Nc1c(O)n(C)c2ccccc12 returned VDR inhibitor 0.0%.
CCCCN(c1ccccc1)S(=O)(=O)N(C)C was read as VDR inhibitor -3.2%.
O=C(CSc1nnc(-c2ccccn2)n1Cc1ccco1)Nc1ccc2c(c1)OCO2 was read as VDR inhibitor -11.2%.
CNC(=O)/C=C1\NC(C)(C)Cc2ccccc21 was read as VDR inhibitor inconclusive.

A portion of the library. The share of hits here may be higher or lower than overall.
